Assay outcomes (PubChem BioAssay)
KCNQ2 block – KCNQ2 channel blockers in CHO-K1 cells – cell-based, FluxOR thallium flux, B-score, primary screen (AID 2156); 20 min; active compounds read low; only compounds with negative scores are shown here; some inactives read as strong as hits; B-score at 10 µM; 310,000 compounds, 1.1% hits;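 active means fluorescence ratio B-score at most minus 3 library SDs, with starting brightness B-score within 2 library SDs, cut at about -5.5 in these data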
Target sequence (O88943 whole entry, looked up): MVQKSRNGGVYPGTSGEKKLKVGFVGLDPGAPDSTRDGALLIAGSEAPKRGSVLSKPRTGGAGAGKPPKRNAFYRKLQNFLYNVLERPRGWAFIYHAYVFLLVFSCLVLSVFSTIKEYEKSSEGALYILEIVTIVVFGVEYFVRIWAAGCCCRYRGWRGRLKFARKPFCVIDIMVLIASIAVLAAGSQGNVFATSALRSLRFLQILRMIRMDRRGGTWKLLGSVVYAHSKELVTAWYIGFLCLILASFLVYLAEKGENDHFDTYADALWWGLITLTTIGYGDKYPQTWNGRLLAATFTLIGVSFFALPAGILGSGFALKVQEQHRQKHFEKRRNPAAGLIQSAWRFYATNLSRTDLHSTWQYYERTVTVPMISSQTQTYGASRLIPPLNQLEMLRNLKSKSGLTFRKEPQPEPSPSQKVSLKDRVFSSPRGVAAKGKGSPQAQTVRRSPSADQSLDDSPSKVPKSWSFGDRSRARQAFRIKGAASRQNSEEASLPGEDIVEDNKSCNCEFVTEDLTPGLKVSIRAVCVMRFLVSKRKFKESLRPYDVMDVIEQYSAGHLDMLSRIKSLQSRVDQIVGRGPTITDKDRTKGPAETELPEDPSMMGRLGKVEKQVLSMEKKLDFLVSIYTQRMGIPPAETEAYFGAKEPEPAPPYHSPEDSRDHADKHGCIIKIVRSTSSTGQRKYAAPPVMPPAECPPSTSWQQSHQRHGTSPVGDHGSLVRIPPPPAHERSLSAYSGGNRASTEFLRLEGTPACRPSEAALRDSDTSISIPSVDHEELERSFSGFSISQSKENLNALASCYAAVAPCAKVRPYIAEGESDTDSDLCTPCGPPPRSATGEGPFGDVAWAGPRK
KCNQ2 block baseline – further read-out of KCNQ2 block, marked with its call; B-score; measured here: initial fluorescence intensity artifact check;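 brightness before thallium and not channel activity; 0 = typical well and far values either way flag optical interference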
The depositor's hits bear a star; i = inactive. Only part of the results is shown. The share of hits here may be higher or lower than overall.

KCNQ2 block baseline	KCNQ2 block	canonical_smiles
1.66	i	COCC(C)NC(=O)C1c2ccccc2Oc2ccccc21 (stereo not drawn)
0.23	i	O=C(c1n[nH]c(=O)c2ccccc12)N1CCN(c2ccccc2)CC1
-0.56	i	Cn1c(CCN2CCCC2)nc2cc(NS(=O)(=O)c3ccccc3)ccc21
1.97	i	CCCCCN1CC(O)=C(c2ccccc2)C1=N
-0.06	i	O=C(O)/C=C/C(=O)N1CCc2ccccc21
1.99	i	CCC(=O)c1ccc(OCC(=O)OCC(=O)NCCCc2ccccc2)cc1
-0.72	i	CN1C(=O)c2ccccc2Sc2ccc(C(=O)O)cc21
0.89	i	CCO/C=C/C(O)(CNC(=O)COc1ccccc1F)C(F)(F)F (stereo not drawn)
0.34	i	CCOC(=O)CCNC(=O)N1CCCC(C(=O)c2cccc(Cl)c2)C1 (stereo not drawn)
-1.07	i	CCOc1ccccc1CNC(=O)C1CCN(c2nc3ccccc3o2)CC1
0.26	i	O=C(Nc1ccccc1O)c1cccc(NC(=O)c2ccco2)c1
0.16	i	CCNc1nc(NC(C)C)nc(Oc2ccc(/C=N/O)cc2)n1
-0.77	i	COc1ccc(C[C@H]2CN3C(=NC[C@H]3Cc3ccccc3)N2CCNC(=O)CCC2CCCCC2)cc1
0.44	i	O=C(NN=C1CCCCCC1)c1cn(-c2ccccc2)nc1-c1ccccc1
0.51	i	COc1ccc(Cc2nc3ccc(C(=O)N(C)C(C)c4nccs4)cc3o2)cc1 (stereo not drawn)

Next part:
KCNQ2 block baseline	KCNQ2 block	canonical_smiles
0.1	i	CCOc1ccc(C(=O)OCCN(C)C)cc1
3.18*	-6.56*	Clc1ccc(OCc2cn3ccccc3n2)c2ncccc12
-0.01	i	C=CCSc1nnc(C)c(/C=C/Nc2ccc(Cl)cc2)n1
1.06	i	Cc1nc2ccccc2n1CC(O)Cn1c(C(F)(F)F)nc2ccccc21 (stereo not drawn)
-0.49	i	O=C1C2C3C=CC(C3)C2C(=O)N1c1ccc2c(c1)OCO2 (stereo not drawn)
0.85	i	CCCCOc1nc(N2CCOCC2)nc(C)c1[N+](=O)[O-]
0.63	i	O=C(NCc1ccccc1)N[C@@H](Cc1c[nH]c2ccccc12)C(=O)O
1.37	i	C/C(=N\NC(=O)c1nn(C)cc1Br)c1ccc(NC(=O)c2ccncc2)cc1
-0.88	i	COc1ccccc1NC(=O)c1ccc(NC(=O)COC(=O)C2(C)CC2(Cl)Cl)cc1 (stereo not drawn)
0.12	i	O=C(CCCCCn1c(=S)[nH]c2ccc(N3CCOCC3)cc2c1=O)NCCc1ccccc1
0.81	i	Cc1ncc(CSc2nnnn2-c2ccccc2)c(N)n1
-0.52	i	COc1cc(/C=C2/C(=O)NN(c3cccc(Cl)c3)C2=O)cc(OC)c1O
-2.85	i	COc1ccc(C(=O)N2CCC(O)(c3ccc(F)cc3)CC2)cc1OC
0.16	i	O=C(O)/C=C/C(=O)NCCC(c1ccccc1)c1ccccc1
-0.16	i	CC(C)(C)OC(=O)N/N=C/c1ccc(N2CCOCC2)s1

(list continues)
KCNQ2 block baseline	KCNQ2 block	canonical_smiles
1.07	i	CCC(=O)Nc1ccccc1N1CCN(c2ccc(F)cc2)CC1
0.99	i	COc1ccc(CN(Cc2cccn2C)S(=O)(=O)c2ccc(F)cc2)cc1
1.4	i	CC(=O)C1=C(C)NC(=O)CC1c1ccccc1Cl (stereo not drawn)
-0.9	i	C=CCn1c(SCC(=O)N(C)c2c(N)n(Cc3ccccc3)c(=O)[nH]c2=O)nnc1-c1ccccc1OC
1.09	i	O=C(CSc1nnc(-c2cccs2)n1-c1ccccc1)NCc1ccco1
2.24	i	CC(C)[C@H](CO)Nc1nc(NCc2ccc(S(N)(=O)=O)cc2)c2ncn(C(C)C)c2n1
-0.34	i	CN(CC(=O)Nc1cccc(F)c1)C(=O)Cc1n[nH]c(=O)c2ccccc12
0.83	i	Cc1cc(NC(=O)c2ccc(Cl)cc2)cc(C)c1OCC(=O)N1CCOCC1
0.26	i	CCOC(=O)C1=C(CNCc2ccc(C)cc2)NC(=O)NC1c1ccc(OC)cc1 (stereo not drawn)
0.25	i	Cc1ccc(C(=O)N2CCC(C)CC2)cc1NC1=NC2CS(=O)(=O)CC2S1 (stereo not drawn)
-0.12	i	O=C(c1cc2c(s1)CCCC2)n1cccn1
1.76	i	COc1cccc(N=C2CC(C)(C)CC(=O)/C2=C(/O)c2ccccc2)c1
2.17	i	CCn1c(SCC(=O)NC2CCCC2)nnc1C(C)NC(=O)c1ccccc1F (stereo not drawn)
1.16	i	CC1CCCC(NC(=O)CNC(=S)N(Cc2ccccc2)Cc2cccs2)C1C (stereo not drawn)
0.68	i	COc1cn(-c2ccccc2)nc1C(=O)Nc1ccc(C)cc1

Individual results from above.
O=C(CSc1nnc(-c2cccs2)n1-c1ccccc1)NCc1ccco1 @ KCNQ2 block baseline = 1.09
COc1ccc(CN(Cc2cccn2C)S(=O)(=O)c2ccc(F)cc2)cc1 @ KCNQ2 block baseline = 0.99

(next part)
KCNQ2 block baseline	KCNQ2 block	canonical_smiles
-0.32	i	COC(=O)c1c(NC(=O)C2CCCCC2C(=O)O)sc2c1CCCCC2 (stereo not drawn)
1.83	i	CCOC(=O)C1CCCN(Cc2cn(C)nc2-c2ccc3c(c2)OCCO3)C1 (stereo not drawn)
-1.65	i	CCOc1ccc(NC(=S)C(C#N)=C2N(C)c3ccccc3N2C)cc1
-0.47	i	O=C(COC(=O)CCc1ccc(S(=O)(=O)N2CCOCC2)cc1)NCc1ccc(Cl)cc1
0.09	i	CCSc1nnc(NC(=O)Cc2ccc(OC)cc2)s1
0.46	i	COc1cccc(C(=O)N2CCN(Cc3ccccc3C(F)(F)F)CC2)c1
-0.85	i	C/C(N)=C(/C#N)C(=O)COC(=O)C1Cc2ccccc2CN1S(C)(=O)=O (stereo not drawn)
1.64	i	O=C(NN1C(=O)C2CC=C(Cl)CC2C1=O)c1ccncc1 (stereo not drawn)
1.56	i	O=C(CO/N=C/c1ccccc1OC(F)F)NCc1ccco1
-0.49	i	Clc1ccccc1OCc1nn2c(-c3ccncc3)nnc2s1
-1.48	i	COc1ccc(OC)c(NC(=O)c2ccccc2NC(=O)c2ccco2)c1
-0.29	i	Cc1cccc(C)c1NC(=O)CCS(=O)(=O)c1cccc2nonc12
1.09	i	CSCCC(C(=O)Nc1ccc2c(c1)OCO2)N1C(=O)c2ccccc2C1=O (stereo not drawn)
1.42	i	CS(=O)(=O)c1ccc2nc(NC(=O)C3=NN(c4ccccc4)C(=O)CC3)sc2c1
1.82	i	Cc1oc(-c2ccc(Cl)cc2)nc1CS(=O)CC(=O)NCCN1CCCCCC1 (stereo not drawn)

Going on with the list.
KCNQ2 block baseline	KCNQ2 block	canonical_smiles
0.28	i	CC(=O)N1CCc2cc(S(=O)(=O)N3CCc4ccccc4C3)ccc21
-0.86	i	COc1ccc(-n2cnnc2SCC(=O)Nc2cccc(S(=O)(=O)N3CCCCC3)c2)cc1
0.14	i	COc1ccc2c(C)cc(SC3CCOC3=O)nc2c1 (stereo not drawn)
-1.45	i	CCOC(=O)/C(=C\Nc1ccccc1C(F)(F)F)Sc1ncc(C(F)(F)F)cc1Cl
1.57	i	NC(=O)c1c(NC(=O)c2ccccc2)sc2c1CCCC2
-0.63	i	Cc1cccc(-n2ncc3c(N(C)C4CCCCC4)ncnc32)c1
0.31	i	CCN(CC(=O)Nc1c(F)cccc1F)C(=O)c1csc2c1CCCC2
0.14	i	CCCN(C(=O)CSCc1c(C)noc1C)c1c(N)n(Cc2ccccc2)c(=O)[nH]c1=O
-0.4	i	Cc1cccc(NC(=O)c2ccc(C)c(S(=O)(=O)N3CCCCC3)c2)n1
0.05	i	CCN(c1cccc(C)c1)S(=O)(=O)c1ccc2c(c1)N(C(C)=O)CCS2
2.12	i	CSc1nc(-c2ccccc2)nn1S(=O)(=O)c1ccc(Cl)cc1
-0.63	i	Cc1nc2ccccc2c(=O)n1/N=C/c1ccc([N+](=O)[O-])o1
-0.55	i	C/C=C/C=C/C(=O)N1CC2(CC(c3cccc(NC(=O)/C=C/C)c3)=NO2)C[C@@H]1C(N)=O (stereo partly drawn)
1.05	i	CC1CCCCC1NC(=O)CN1CCC(NC(=O)c2cccc(F)c2)CC1 (stereo not drawn)
-0.99	i	CCCCN(CCCNC(=O)c1ccc(CS(=O)(=O)c2c(Cl)cccc2Cl)o1)Cc1ccccc1

One compound at a time, as listed above:
`COc1ccc2c(C)cc(SC3CCOC3=O)nc2c1` (stereo not drawn) across the screens: KCNQ2 block baseline = 0.14; KCNQ2 block = i
`CC(=O)N1CCc2cc(S(=O)(=O)N3CCc4ccccc4C3)ccc21` across the screens: KCNQ2 block baseline = 0.28; KCNQ2 block = i

Returning to the listing, starting three compounds before the break.
KCNQ2 block baseline	KCNQ2 block	canonical_smiles
-0.55	i	C/C=C/C=C/C(=O)N1CC2(CC(c3cccc(NC(=O)/C=C/C)c3)=NO2)C[C@@H]1C(N)=O (stereo partly drawn)
1.05	i	CC1CCCCC1NC(=O)CN1CCC(NC(=O)c2cccc(F)c2)CC1 (stereo not drawn)
-0.99	i	CCCCN(CCCNC(=O)c1ccc(CS(=O)(=O)c2c(Cl)cccc2Cl)o1)Cc1ccccc1
1.01	i	CCCc1cc(=O)oc2cc(OC(C)C(=O)NCCCn3ccnc3)ccc12 (stereo not drawn)
1.2	i	CCc1ccc(CCC(=O)Nc2sc3c(c2C#N)CCCC3)o1
-0.05	i	Cc1cc(C(=O)N2CC(C)CC(C)C2)n(-c2ccccc2)n1 (stereo not drawn)
-1.1	i	Cc1cc(NS(=O)(=O)c2ccc3c(c2)OCCO3)no1
3.03	i	O=c1ccc(-c2n[nH]c(=S)n2-c2ccc(F)c(Cl)c2)n[nH]1
-1.7	i	CC1(C)C2CCC1(CS(=O)(=O)NCc1ccc(S(N)(=O)=O)cc1)C(=O)C2 (stereo not drawn)
0.07	i	Cc1cccc(C(=O)c2ccccc2C(=O)O)c1
0.06	i	Cc1ccc(NC(=O)CN(C)C(=O)CSc2nncn2C)cc1
-1.05	i	CC(=O)NC(Cc1ccc(F)c(F)c1)C(=O)NC1CCN(c2nnnn2-c2ccccc2)CC1 (stereo not drawn)
1.13	i	CC(C)CNC(=O)CSc1nc2nn(-c3ccccc3)c(=O)c-2c2n1CCCCC2
-0.14	i	COc1cc(C(CC(=O)Nc2ccc(Cl)cn2)N2Cc3ccccc3C2=O)cc(OC)c1OC (stereo not drawn)
-0.01	i	CCOc1ccccc1NC(=O)C1CCN(C(=O)C2CC(=O)N(c3ccc(C)cc3)C2)CC1 (stereo not drawn)
-0.75	i	Cc1c(N(C(=O)Cc2cccs2)C2(C(=O)NC3CCCC3)CCCCC2)c(=O)n(-c2ccccc2)n1C
-1.15	i	Oc1ccc(C2C(c3ccccc3)=NN=C(c3ccc(Cl)cc3)N2O)c(O)c1 (stereo not drawn)
0.74	i	O=C(Nc1ccc(O)c(-c2nc3ccccc3o2)c1)C1(c2ccc(Br)cc2)CCCC1

Five entries picked at random from those above:
KCNQ2 block baseline	KCNQ2 block	canonical_smiles
0.12	i	O=C(CCCCCn1c(=S)[nH]c2ccc(N3CCOCC3)cc2c1=O)NCCc1ccccc1
-0.29	i	Cc1cccc(C)c1NC(=O)CCS(=O)(=O)c1cccc2nonc12
-0.12	i	O=C(c1cc2c(s1)CCCC2)n1cccn1
0.1	i	CCOc1ccc(C(=O)OCCN(C)C)cc1
0.16	i	CCNc1nc(NC(C)C)nc(Oc2ccc(/C=N/O)cc2)n1

Later entries:
KCNQ2 block baseline	KCNQ2 block	canonical_smiles
0.42	i	CCc1ccc(NS(=O)(=O)c2ccc3[nH]c(=O)[nH]c3c2)cc1
0.63	i	CC(C)CCNCC(O)CON=C1c2ccccc2-c2ccccc21 (stereo not drawn)
0.05	i	Cc1cc(N2CCOCC2)nc2cc(O)ccc12
0.69	i	Cc1c(Cl)cccc1NC(=O)Cn1cccc1
0.64	i	Cc1nc(Nc2ccccc2C(F)(F)F)sc1C(=O)N(C)C
-0.42	i	Cc1cc(O)ccc1NC(=S)NC(=O)c1cncc(Br)c1
0.34	i	COCCN(Cc1cc2cc(C)ccc2nc1Cl)C(=O)Nc1ccccc1C
-1.82	i	Cc1cccc(C)c1OC(=O)C(c1ccccc1)c1ccccc1
-0.95	i	O=C(Cc1ccccc1)N/N=C/c1ccc(-c2ccc([N+](=O)[O-])cc2)o1
0.61	i	CCOc1ccccc1NC(=O)Cn1c(=O)n(-c2ccccc2)c(=O)c2oc3ccccc3c21
-1.05	i	CS(=O)(=O)N(CC(=O)N/N=C/c1ccco1)c1ccccc1Br
0.87	i	CCCc1cc(C(=O)NCc2ccccc2)no1
-0.82	i	COc1ccc(OC)c(N(CC(=O)N2CCCC2)S(=O)(=O)c2ccc(C)cc2)c1
0.13	i	Cc1cc(C)c(OCCCCNCc2ccccc2)c(Cl)c1
0.34	i	COc1cc(NC2CCCCC2O)c2nc(-c3ccc(Cl)cc3)ccc2c1 (stereo not drawn)

Following part.
KCNQ2 block baseline	KCNQ2 block	canonical_smiles
0.03	i	COc1ccc(-n2nc3c(c2NC(=O)C(C)Oc2ccccc2)CS(=O)(=O)C3)cc1 (stereo not drawn)
-0.13	i	O=C(Nc1c2c(nn1-c1ccc(F)cc1)CS(=O)(=O)C2)c1ccc(S(=O)(=O)N2CCOCC2)cc1
0.81	i	COc1ccc(OCC(=O)NNC(=O)c2cc3ccccc3o2)cc1
-2.5	i	O=C(NNC1=NCCCCC1)c1ccccc1
1.36	i	O=C1Nc2cc(C(=O)N3CCOCC3)ccc2SC1N1CCOCC1 (stereo not drawn)
-0.35	i	COC(=O)c1cc(C)sc1NC(=O)CSc1ncccn1
-0.63	i	O=C(NNC(=S)NCc1ccco1)c1ccc(Cl)s1
0.39	i	O=C(NCCCN1CCN(CCCNC(=O)c2ccc3c(c2)OCO3)CC1)c1ccc2c(c1)OCO2
-0.56	i	CCOC(=O)c1cnn2c(C)cc(-c3ccc(F)cc3)nc12
-0.17	i	COc1cnn(-c2ccc(Br)cc2)c(=O)c1SCc1ccccc1
0.25	i	Cc1nc(SCC(=O)N2CCN(c3ccccc3)CC2)n[nH]1
1.25	i	CC(C)C(=O)Nc1nnc(SCC(=O)Nc2ccc3c(c2)OCO3)s1
